# Source: PubChem BioAssay
# Env fusion inh – HIV envelope-mediated fusion inhibition; AID 651610; HeLa-JRFL Env/CEM21 cell fusion, luciferase; inhibition, % at 12.3 µM; actives 1.1% (n = 360,000);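 active means mean replicate inhibition score of at least 50 and every replicate individually at or above 50; inconclusive means only one of the two criteria met; inactive means mean below 50 and not all replicates reaching 50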;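 further: 0% = plate neutral controls and 100% = maraviroc near 300 nM; one replicate is shown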
# * = called active by the depositor; ? = inconclusive; [ ] = another dose, or the depositor's remark.
smiles	Env fusion inh
CO[C@H]1CN(C)C(=O)c2cc(NC(=O)c3cc(C)on3)ccc2OC[C@H](C)NC[C@H]1C	-11[16.7 µM]
COc1cccc(C(=O)Nc2ccc3c(c2)C(=O)N(C)C[C@@H](OC)[C@@H](C)CN(CCc2ccccc2)[C@H](C)CO3)c1	-21[16.7 µM]
C[C@H](NC(=O)C[C@H]1CC[C@H]2[C@@H](COC[C@@H](O)CN2C(=O)Nc2cccc(Cl)c2)O1)c1ccccc1	-12[16.7 µM]
CO[C@@H]1CN(C)C(=O)c2cc(NC(=O)c3ccccc3F)ccc2OC[C@@H](C)N(CC2CCOCC2)C[C@@H]1C	-11[16.7 µM]
COc1cccc(S(=O)(=O)N2C[C@@H](O)COC[C@@H]3O[C@@H](CC(=O)Nc4ccccc4)CC[C@H]32)c1	-7[16.7 µM]
CC=Cc1ccc2n(c1=O)C[C@@H]1[C@@H](CO)[C@H](C(=O)N3CCOCC3)N(Cc3ccccc3OC)[C@H]21 (mixture of isomers)	-4[16.7 µM]
CCCN1C[C@@H](C)[C@@H](OC)CN(C)C(=O)c2cc(NC(=O)c3cnccn3)ccc2OC[C@H]1C	-3[16.7 µM]
COC(=O)c1cc2c(c3c4cc(F)ccc4n(S(=O)(=O)c4ccccc4)c13)C(=O)N(Cc1ccccc1)C2	5
O=C(NCc1ccccn1)[C@@H]1[C@@H](CO)[C@@H]2Cn3c(ccc(/C=C/c4ccccc4)c3=O)[C@H]1N2CC1CC1	-9[16.7 µM]
CC(C)NC(=O)Nc1ccc2c(c1)C(=O)N([C@@H](C)CO)C[C@@H](C)[C@H](CN(C)C(=O)CCC(F)(F)F)OCCCC[C@@H](C)O2	-372[16.7 µM]
COc1ccc2c3c(n(C)c2c1)[C@@H](CO)N(C(=O)C1CCOCC1)CC31CCN(C(=O)Nc2cccc(F)c2)CC1	-4[16.7 µM]
Cc1noc(C)c1S(=O)(=O)N(C)C[C@H]1OCc2ccccc2-c2ccccc2C(=O)N([C@@H](C)CO)C[C@H]1C	17[16.7 µM]
O=C(N[C@H](C(=O)N1CCC[C@H]1C(=O)NCc1ccccc1)c1ccccc1)c1ccc(Cl)cc1Cl	19
C[C@@H]1CN([C@H](C)CO)C(=O)c2ccccc2-c2ccccc2CO[C@@H]1CN(C)S(=O)(=O)c1ccc(Cl)cc1	20[16.7 µM]
CO[C@@H]1CN(C)C(=O)c2cc(NS(=O)(=O)Cc3ccccc3)ccc2OC[C@H](C)NC[C@H]1C	-13[16.7 µM]
COc1ccccc1-c1ccc2c(c1)[C@@H]1C[C@H]3[C@@H](CN1CC2)[C@H](C)ON3C	-7
CO[C@@H]1CN(C)C(=O)c2ccc(NS(=O)(=O)CC(F)(F)F)cc2OC[C@H](C)N(C)C[C@H]1C	-15[16.7 µM]
Cc1cc(O)cc(=O)n1-c1ccc(Cl)c(C(F)(F)F)c1	-31
O=C(C1CCC1)N1CC[C@@H]2[C@@H](CO)Nc3ccc(C#Cc4ccc(F)cc4)cc3[C@@H]21	37[16.7 µM]
CO[C@@H]1CC[C@H]2CCOc3c(C#N)cccc3C(=O)N(C)C[C@@H](C)C(=O)N(C)C[C@H]1O2	-19[16.7 µM]
Cc1ccc(S(=O)(=O)N(C)C[C@@H]2OCc3cn(nn3)CCCC(=O)N([C@@H](C)CO)C[C@@H]2C)cc1	-10[16.7 µM]
Cc1noc(C)c1NC(=O)Nc1ccc2c(c1)CC(=O)N([C@H](C)CO)C[C@@H](C)[C@H](CN(C)Cc1ccc(-c3ccccc3)cc1)O2	1[16.7 µM]
O=C(C(=O)N1CCN(S(=O)(=O)c2cccc(C(F)(F)F)c2)CC1)c1cccc(C(F)(F)F)c1	2
CCS(=O)(=O)Nc1ccc2c(c1)C(=O)N(C)[C@@H]1CC[C@@H](CC(=O)N3CCN(C)CC3)O[C@H]1CO2	3[16.7 µM]
CN1CCN(C(=O)C[C@@H]2CC[C@@H]3[C@@H](COc4ccc(NC(=O)c5cscn5)cc4C(=O)N3C)O2)CC1	2[16.7 µM]
C[C@H]1CCCCO[C@H](CN(C)CC2CC2)[C@@H](C)CN([C@@H](C)CO)C(=O)c2cc(NS(=O)(=O)c3ccc(F)cc3)ccc2O1	-2[16.7 µM]
COC(=O)c1ccc2nc(-c3ccccc3)c(Cc3cccc(Cl)c3)n2c1	1
COc1ccc(CNC(=O)c2cc3c(c(-c4cccc(-c5ccc(C#N)cc5)c4)n2)[C@@H](CCO)N([S@](=O)C(C)(C)C)C3)cc1	8[16.7 µM]
COc1ccccc1CN1C[C@@H](C)[C@@H](OC)CN(C)C(=O)c2cc(NC(C)=O)ccc2OC[C@H]1C	9[16.7 µM]
COc1ccc(NC(=O)N(C)C[C@H]2Oc3ccc(NS(=O)(=O)c4ccc(C)cc4)cc3CC(=O)N([C@H](C)CO)C[C@@H]2C)cc1	-15[16.7 µM]
c1ccc(Cn2cc(CCOCc3ccccn3)c3ccccc32)cc1	-8
O=C(C[C@H]1CC[C@H](NS(=O)(=O)c2ccc(F)cc2)[C@@H](CO)O1)NCc1ccc(Cl)c(Cl)c1	4[16.7 µM]
COc1cc(C=NN=c2sc3ccccc3n2C)ccc1OCCO	-65
COc1ccc2c3c([nH]c2c1)[C@H](CO)N(Cc1ccccc1F)CC31CCN(C(=O)C2CCOCC2)CC1	-25[16.7 µM]
C[C@@H]1CN([C@@H](C)CO)C(=O)c2cc(NC(=O)Cc3ccccc3)ccc2O[C@@H](C)CCCCO[C@H]1CN(C)Cc1ccncc1	4[16.7 µM]
CCCN(CCC)c1cc(=O)nc2ccccn12	-6

# (more compounds)
smiles | Env fusion inh
Cc1ccc(S(=O)(=O)NCC[C@H]2CC[C@H](NC(=O)CC3CC3)[C@@H](CO)O2)cc1 | -6[16.7 µM]
O=C(Cc1ccncc1)NCC[C@@H]1CC[C@H](NC(=O)C2CCC2)[C@H](CO)O1 | 0[16.7 µM]
COc1ccc(C(=O)Nc2ccc3c(c2)C(=O)N(C)[C@H]2CC[C@H](CC(=O)NCC4CC4)O[C@H]2CO3)cc1 | -5[16.7 µM]
Cc1ccccc1-c1cnc2c(c1)C(=O)N([C@@H](C)CO)C[C@@H](C)[C@@H](CN(C)C(=O)CC1CC1)O2 | -8[16.7 µM]
CCCN(C)C[C@H]1OCCCC[C@H](C)Oc2ccc(NS(=O)(=O)c3ccc(C)cc3)cc2C(=O)N([C@@H](C)CO)C[C@@H]1C | -14[16.7 µM]
COCC(=O)Nc1ccc2c(c1)OC[C@@H](C)N(C(=O)Nc1ccccc1F)C[C@@H](C)[C@H](OC)CN(C)C2=O | 6[16.7 µM]
CN1C(=O)c2cc(NS(=O)(=O)c3cccc(F)c3)ccc2OC[C@H]2O[C@@H](CC(=O)N3CCc4ccccc4C3)CC[C@@H]21 | 10[16.7 µM]
COc1ccc(NC(=O)Nc2ccc3c(c2)CC(=O)N([C@H](C)CO)C[C@@H](C)[C@@H](CN(C)S(=O)(=O)c2ccc(Cl)cc2)O3)cc1 | 12[16.7 µM]
O=C(NCc1ccncn1)[C@H]1[C@H](CO)[C@H]2Cn3c(cccc3=O)[C@@H]1N2CC1CC1 | 19[16.7 µM]
CO[C@H]1CC[C@H]2CCOc3c(C#N)cccc3C(=O)N(C)[C@H](C)C(=O)N(C)C[C@@H]1O2 | 4[16.7 µM]
COc1cc(CN2CC3(CCN(C(=O)Nc4c(C)noc4C)CC3)c3c([nH]c4cc(OC)ccc34)[C@H]2CO)cc(OC)c1 | -15[16.7 µM]
C[C@@H]1CN([C@@H](C)CO)C(=O)c2cc(NC(=O)C3CC3)ccc2O[C@@H]1CN(C)C(=O)Nc1ccc(F)cc1 | 0[16.7 µM]

# The last 5 entries of the section before are carried over, then new ones follow:
smiles | Env fusion inh
COc1ccc(NC(=O)Nc2ccc3c(c2)CC(=O)N([C@H](C)CO)C[C@@H](C)[C@@H](CN(C)S(=O)(=O)c2ccc(Cl)cc2)O3)cc1 | 12[16.7 µM]
O=C(NCc1ccncn1)[C@H]1[C@H](CO)[C@H]2Cn3c(cccc3=O)[C@@H]1N2CC1CC1 | 19[16.7 µM]
CO[C@H]1CC[C@H]2CCOc3c(C#N)cccc3C(=O)N(C)[C@H](C)C(=O)N(C)C[C@@H]1O2 | 4[16.7 µM]
COc1cc(CN2CC3(CCN(C(=O)Nc4c(C)noc4C)CC3)c3c([nH]c4cc(OC)ccc34)[C@H]2CO)cc(OC)c1 | -15[16.7 µM]
C[C@@H]1CN([C@@H](C)CO)C(=O)c2cc(NC(=O)C3CC3)ccc2O[C@@H]1CN(C)C(=O)Nc1ccc(F)cc1 | 0[16.7 µM]
C[C@@H]1CCCCO[C@@H](CN(C)C(=O)Nc2ccc3c(c2)OCO3)[C@@H](C)CN([C@@H](C)CO)C(=O)c2cc(NC(=O)Nc3cccc4ccccc34)ccc2O1 | -33[16.7 µM]
Cc1noc(C)c1NC(=O)N[C@H]1C=C[C@@H](CC(=O)NCc2ccc(Cl)c(Cl)c2)O[C@H]1CO | 22[16.7 µM]
C[C@@H]1CCCCO[C@H](CN(C)C)[C@@H](C)CN([C@H](C)CO)C(=O)c2cc(NC(=O)Nc3ccccc3)ccc2O1 | 5[16.7 µM]
O=C(N[C@H]1C=C[C@@H](CC(=O)N2CCc3ccccc3C2)O[C@H]1CO)C1CC1 | 24[16.7 µM]
CN1c2ccc(C3=CCCCC3)cc2[C@@H]2[C@@H](CCN2C(=O)C2CC2)[C@H]1CO | -35[16.7 µM]
COC(=O)C1=C(C)N(Cc2ccc(Cl)cc2)C(=S)NC1c1cccc(Br)c1 (stereo unspecified) | 12
CC=Cc1ccc2n(c1=O)C[C@@H]1[C@@H](CO)[C@H](C(=O)NCCCN3CCOCC3)[C@H]2N1Cc1cocn1 (mixture of isomers) | -19[16.7 µM]
C=CCN1CC(COc2ccc(OC)cc2)OCCS1(=O)=O (stereo unspecified) | -10
CCC(=O)Nc1ccc2c(c1)C(=O)N(C)[C@H]1CC[C@H](CC(=O)Nc3c(F)cccc3F)O[C@@H]1CO2 | -5[16.7 µM]
C[C@H](CO)N1C[C@H](C)[C@H](CN(C)C(=O)Nc2ccc3c(c2)OCO3)Oc2ccc(NS(=O)(=O)c3ccc(Cl)cc3)cc2CC1=O | 39[16.7 µM]
Cc1[nH]c2ccccc2c1CC(=O)Nc1ccc(Nc2cccnc2)c(-c2ccc(C(C)(C)C)cc2)c1 | 35
Cc1noc(C)c1NC(=O)NCC[C@@H]1CC[C@H](NC(=O)c2ccc(F)cc2)[C@H](CO)O1 | 0[16.7 µM]
C[C@@H]1CN([C@H](C)CO)C(=O)Cc2cc(NC(=O)c3ccncc3)ccc2O[C@H]1CN(C)Cc1ccc(Cl)c(Cl)c1 | 22[16.7 µM]
O=C(C1CCCCC1)N1C[C@@H]2O[C@H](CNS(=O)(=O)c3ccccc3F)CC[C@@H]21 | -21[16.7 µM]
O=C(C[C@H]1CC[C@H]2[C@@H](COC[C@@H](O)CN2Cc2cccc(C(F)(F)F)c2)O1)NCc1ccc(Cl)cc1 | 6[16.7 µM]
CC(C)NC(=O)Nc1ccc2c(c1)CC(=O)N([C@H](C)CO)C[C@@H](C)[C@@H](CN(C)Cc1ccc3c(c1)OCO3)O2 | -2[16.7 µM]
CN(C)C(=O)[C@@H]1[C@@H](CO)[C@@H]2Cn3c(ccc(-c4ccccc4)c3=O)[C@@H]2N1CCC(F)(F)F | -1[16.7 µM]
C[C@H](CO)N1C[C@H](C)[C@H](CN(C)C)Oc2cc(C#Cc3ccc(F)cc3)ccc2S1(=O)=O | -18[16.7 µM]
O=C(C[C@H]1CC[C@H]2NC[C@H](O)COC[C@@H]2O1)Nc1ccc(-c2ccccc2)cc1 | 0[16.7 µM]
C[C@@H]1CN([C@@H](C)CO)C(=O)Cc2cc(NC(=O)CCC(F)(F)F)ccc2O[C@H]1CN(C)Cc1ccncc1 | -3[16.7 µM]
CN1C(=O)c2cc(NC(=O)c3cccs3)ccc2OC[C@@H]2O[C@@H](CC(=O)N3CCCCC3)CC[C@H]21 | 16[16.7 µM]
CO[C@H]1CC[C@@H]2CCOc3c(C#N)cccc3C(=O)N(C)C[C@H](c3ccccc3)CC(=O)N(C)C[C@H]1O2 | -11[16.7 µM]
C[C@H](CO)N1C[C@H](C)[C@@H](CN(C)C(=O)CCN(C)C)OCc2ccccc2-c2c(n(C)c3ccccc23)C1=O | 50[16.7 µM]
CO[C@H]1CN(C)C(=O)c2ccc(NS(C)(=O)=O)cc2OC[C@H](C)N(C(=O)c2ccc3c(c2)OCO3)C[C@H]1C | 23[16.7 µM]

# At a glance, three of the compounds above:
smiles | Env fusion inh
CO[C@H]1CC[C@@H]2CCOc3c(C#N)cccc3C(=O)N(C)C[C@H](c3ccccc3)CC(=O)N(C)C[C@H]1O2 | -11[16.7 µM]
C[C@H](CO)N1C[C@H](C)[C@@H](CN(C)C(=O)CCN(C)C)OCc2ccccc2-c2c(n(C)c3ccccc23)C1=O | 50[16.7 µM]
CO[C@H]1CN(C)C(=O)c2ccc(NS(C)(=O)=O)cc2OC[C@H](C)N(C(=O)c2ccc3c(c2)OCO3)C[C@H]1C | 23[16.7 µM]

# The list continues.
smiles | Env fusion inh
C[C@H]1CN([C@@H](C)CO)C(=O)c2ccccc2-c2ccccc2CO[C@H]1CN(C)S(=O)(=O)c1cccc(F)c1 | 53[16.7 µM]
O=C(C[C@@H]1C=C[C@@H](NS(=O)(=O)c2ccccc2)[C@H](CO)O1)NCc1ccc(Cl)c(Cl)c1 | -2[16.7 µM]
COc1ccccc1NC(=O)N1C[C@@H](O)COC[C@H]2O[C@H](CC(=O)N3CCC(Cc4ccccc4)CC3)CC[C@@H]21 | 15[16.7 µM]
CCc1cc2c(nc1CC)CCCN2S(=O)(=O)c1ccccc1C | ?
O=C(C[C@H]1C[C@H]2c3cc(NC(=O)c4ccc5c(c4)OCO5)ccc3O[C@H]2[C@H](CO)O1)NCc1ccc(Oc2ccccc2)cc1 | 73*[16.7 µM]
Nc1[nH]c(C(=O)c2ccccc2)c(-c2cccc3ccccc23)c1C(=O)c1cccs1 | 38
O=c1[nH]c(=O)c2ccccc2o1 | 0
CC(C)CC#Cc1ccc2c(c1)O[C@H](CN(C)C(=O)C1CC1)[C@@H](C)CN([C@@H](C)CO)S2(=O)=O | 27[16.7 µM]
C[C@@H]1CN([C@@H](C)CO)C(=O)c2ccccc2-c2ccccc2CO[C@H]1CN(C)C(=O)N[C@H](C)c1ccccc1 | -10[16.7 µM]
O=C(C[C@@H]1CC[C@H](NC(=O)Cc2cccnc2)[C@@H](CO)O1)Nc1ccc(-c2ccccc2)cc1 | 10[16.7 µM]

# The list is partial, so the mix of outcomes need not match the whole.
